Cruzain inh noDet: cruzain (T. cruzi) inhibition without detergent; P25779; purified cruzain, Z-FR-AMC fluorescence, no detergent; Potency, µM, for the others: max response, negative = inhibition, hits mostly inhibitors; 2.3% of 200,000 active; AID 1476; active = well fitted curve in the direction sought with a large enough effect; inconclusive = small, poorly fitted or top-dose-only effect, or another doubt; inactive = no such curve, though single readings can be large; an effect the other way counts as inactive or inconclusive;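 also: plate controls were enzyme without inhibitor for no effect and buffer without enzyme for full effect; nearly all actives have a fitted effect of over 40% in size; top concentration of the series not given in the record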
Target sequence (P25779 123-467 limits assumed): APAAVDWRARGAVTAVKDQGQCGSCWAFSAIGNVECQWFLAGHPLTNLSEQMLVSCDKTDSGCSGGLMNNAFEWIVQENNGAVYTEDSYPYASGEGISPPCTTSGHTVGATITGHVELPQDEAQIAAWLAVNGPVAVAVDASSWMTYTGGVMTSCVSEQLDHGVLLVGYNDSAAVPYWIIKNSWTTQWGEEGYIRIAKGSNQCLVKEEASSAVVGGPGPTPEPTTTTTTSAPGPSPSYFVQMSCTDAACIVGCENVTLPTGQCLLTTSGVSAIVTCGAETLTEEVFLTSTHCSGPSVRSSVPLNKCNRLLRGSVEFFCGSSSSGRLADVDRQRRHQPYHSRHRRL
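Detergent-free condition (0.00005% Triton X-100) in acetate buffer pH 5.5 with DTT. 1.5 nM enzyme and compound were pre-mixed 15 min, then 2 uM Z-FR-AMC substrate added; reaction progress from fluorescence change between first and third reads (60 s).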
Cruzain inh Det: cruzain (T. cruzi) inhibition with detergent | P25779 | purified cruzain, Z-FR-AMC fluorescence, 0.01% Triton | Potency, µM, without a hit: max response, negative = inhibition, actives largely listed as inhibitors | 0.43% of 200,000 active | AID 1478; active = well fitted curve in the direction sought with a large enough effect; inconclusive = small, poorly fitted or top-dose-only effect, or another doubt; inactive = no such curve, though single readings can be large; an effect the other way counts as inactive or inconclusive;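 also: plate controls were neutral wells for no effect and buffer without enzyme for full effect; nearly all actives have a fitted effect of over 40% in size; top concentration of the series not given in the record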
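Z-FR-AMC hydrolysis (2 uM substrate) by cruzain (1.5 nM) monitored kinetically at ex 360/em 450 nm after 15 min room-temperature compound exposure; 0.01% Triton X-100, pH 5.5, 5 mM DTT.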
SARS PLP yeast: SARS-CoV PLP inhibition in yeast; S. cerevisiae expressing SARS-CoV PLpro, growth rescue; control for the full effect not named in the record; Potency, µM (highest dose often 32.9 µM), without a hit: top-dose activity, positive = growth rescue; 0.19% of 330,000 active; AID 485353; also: 0% is about no effect; nearly all actives have a fitted effect of over 55% in size; growth read by luminescence after 48 h
RE007 growth inh: less growth of the S. pombe RE007 Vpr strain. S. pombe RE007 Vpr strain, BacTiter-Glo ATP luminescence, 24 h; control for the full effect not named in the record. Potency, µM (highest dose often 92.2 µM), without a hit: at the highest dose activity change, negative = less growth. 0.21% of 360,000 active. AID 651644; active = well fitted falling curve with a large enough effect; inconclusive = small, poorly fitted or top-dose-only effect; inactive = no such curve, though single readings can be large or run the other way;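 also: % is scaled to controls: 0 for no effect and ±100 for the full control effect; nearly all actives have a fitted effect of over 50% in size; the assay follows cell death caused by Vpr and the record does not say whether a fall means rescue or toxicity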
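Fission yeast RE007 carrying one integrated HIV-1 vpr copy, seeded at OD 0.01 in PMG+AL medium with 23 nL pinned compound. Grown 24 h at 30 degrees; viability read by BacTiter-Glo luminescence after 5 min.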
LASV entry inh: inhibitors of Lassa virus binding or cell entry. Potency, µM (titrated, usually from 37.9 µM), without a hit: at the highest dose activity change, negative = inhibition, actives largely listed as inhibitors. 1.2% of 300,000 active. Lassa virus pseudotype entry inhibition, cell reporter; control for the full effect not named in the record; active means well fitted inhibition curve with a large enough effect; inconclusive means small, poorly fitted or top-dose-only effect, or effect the other way; inactive means flat fitted curve, though single readings scatter; tested in HEK293 cells; also: % is scaled to controls: 0 for no effect and ±100 for the full control effect; nearly all actives have a fitted effect of over 50% in size; luciferase read-out
NS1 function inh: inhibitors of influenza NS1 protein function; S. cerevisiae slowed by influenza A NS1, growth recovery by OD600; Potency, µM (titrated, usually from 46.1 µM), inactives show at the top dose activity, positive = more growth; 0.4% of 270,000 active; also: actives are rising curves; nearly all actives have a fitted effect of over 50% in size
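S. cerevisiae expressing influenza A NS1, grown in glucose, washed, then diluted 1:100 into pH 6.0 -URA galactose medium with 23 nl compound. Growth recovery read as OD600; NS1-free strain serves as control.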
2A StopGo: lowers the luciferase signal of an FMDV 2A StopGo reporter; human cells with a luciferase reporter of 2A StopGo recoding; control for the full effect not named in the record; AID 1159524; Potency, µM (top dose mostly 57.9 µM), without a hit: at the highest dose signal change, negative = less light; 1.2% of 410,000 active; active = well fitted falling curve with a large enough effect; inconclusive = small, poorly fitted or top-dose-only effect; inactive = no such curve, though single readings can be large or run the other way; tested in HEK293T cells; also: % is scaled to controls: 0 for no effect and ±100 for the full control effect; nearly all actives have a fitted effect of over 45% in size; luciferase light after 4 h
Marburg entry inh: inhibitors of Marburg virus binding or cell entry. Marburg virus pseudotyped entry inhibition, cell reporter; control for the full effect not named in the record; about a third of the inactives were read at about 46 µM. Potency, µM (highest dose often 37.8 µM), for the others: at the highest dose activity change, negative = inhibition, actives largely listed as inhibitors. 1.8% of 300,000 active; active = well fitted inhibition curve with a large enough effect; inconclusive = small, poorly fitted or top-dose-only effect, or effect the other way; inactive = flat fitted curve, though single readings scatter; tested in HEK293 cells; about a fifth of its hits are not listed in these tables; also: % is scaled to controls: 0 for no effect and ±100 for the full control effect; luciferase read-out
Starred values were filed as active, the others as inactive; ? = inconclusive; . = not tested or not shown; [ ] = dose if it differs, or a comment. Unless noted, calls follow the shape of the dose curve; as a rule, active means well fitted rising curve with a large enough effect; inconclusive means small, poorly fitted or top-dose-only effect; inactive means no such curve, though single readings can be large or run the other way. Potency is read from the fitted curve at half-maximal effect.

Compound | Cruzain inh noDet | Cruzain inh Det | SARS PLP yeast | RE007 growth inh | LASV entry inh | NS1 function inh | 2A StopGo | Marburg entry inh
Cc1cccc(NC(=O)CSc2nc(N)c(NC(=O)c3ccccc3F)c(=O)[nH]2)c1 | . | . | 4.3% | -2.9% | ? | 18.8% | 20.1% | -0.2%
Cc1ccc2nc(NC(=O)c3ccc(N4C(=O)CCC4=O)cc3)sc2c1 | . | . | -0.2% | -3.9% | 12.7%[46.1 µM] | . | 18.2% | -4.5%[46.1 µM]
COc1cc2nc(SCc3ccc(C(F)(F)F)cc3)n(Cc3cccs3)c(=N)c2cc1OC | ? | -1.4% | -2.1% | -4.4%[3.69 µM] | 18.1% | 14.3% | 1.5% | -10.1%
COc1cccc(NC(=O)Nn2cnnc2)c1 | . | . | 8.1% | -17.5% | . | 1.8% | -19.0% | .
Cc1ccc(/C=C2\Oc3cc(OCC(=O)NN)ccc3C2=O)o1 | . | . | -0.9% | 7.1% | 25.6%[46.1 µM] | 13.4% | 7.4% | 18.1%[46.1 µM]
COc1ccccc1Nc1nc(-c2cccc([N+](=O)[O-])c2)cs1 | . | . | -1.3% | -8.0% | . | 7.7% | 43.1%[activator] | .
Fc1ccccc1Cn1nnc2c(-n3ccnc3)ncnc21 | -4.6% | -2.4% | -30.0% | 2.3% | -12.8% | -64.3% | ? | ?
C=CCc1cccc2cc(C(=O)Nc3ccccc3C(=O)O)c(=O)oc12 | . | . | -3.8% | 23.6% | ? | 6.4% | -5.7% | -20.1%[46.1 µM]
COc1ccccc1-c1coc2cc(OC(=O)/C=C/c3ccccc3)ccc2c1=O | ? | -7.0% | -7.8% | -2.1% | 15.5% | 5.7% | 24.9% | -2.7%
Cc1ccc(OCC(=O)N(Cc2ccco2)Cc2ccc(C)o2)cc1 | -16.9% | -6.6% | . | . | 12.7%[46.1 µM] | . | -22.8% | -0.9%[46.1 µM]
Cc1ccc(-n2nc3c(=O)n(CCCC(=O)NCCc4ccccc4Cl)nc(C)c3c2C)cc1 | -2.7% | -1.7% | . | . | 3.1%[46.1 µM] | . | 4.8% | .
CCc1ccc(OCC2c3cc(OC)c(OC)cc3CCN2C(=O)COc2ccccc2)cc1 (stereo not drawn) | 17.3% | 0.6% | . | . | ? | . | -21.8% | .
COc1ccccc1Nc1cc(C)nc(Nc2ccccc2OC)n1 | . | . | -2.1% | -2.6% | -13.0% | . | -23.3% | -21.8%
COc1ccc(CCNC(=O)CNS(=O)(=O)c2cccs2)cc1OC | 1.6% | 1.5% | -1.2% | -14.9% | 11.5% | 1.0% | . | 16.0%
Cc1cc(Cl)ccc1OCC(=O)NCCC(=O)O | -4.9% | 1.9% | -1.5% | 8.6% | 7.0% | 0.9% | . | 5.6%
O=C(N/N=C/c1ccccc1[N+](=O)[O-])C(=O)N1CCCC1 | . | . | -1.1% | -7.3% | 6.0% | 3.7% | 92.8%[activator] | 1.0%[46.1 µM]
CCn1c(CN2c3ccccc3Sc3ccccc32)n[nH]c1=S | . | . | 1.5% | 10.3% | -8.2%[46.1 µM] | 5.5% | -21.2% | ?
Cn1nnnc1SCCCNCc1ccc(Cl)cc1 | 11.6% | 0.2% | . | . | -1.5%[46.1 µM] | . | -3.7% | .
NS(=O)(=O)c1ccc(NNC(=O)c2ccc(Br)o2)c([N+](=O)[O-])c1 | . | . | 1.5% | -20.6% | -18.0%[46.1 µM] | . | ? | -6.2%
O=C(N/N=C/C=C\c1ccco1)c1ccccn1 | . | . | -1.2% | 1.9% | -0.1% | 2.8% | 67.2%[activator] | -22.0%
O=C1CC2(CCN(C(=O)C(=O)c3c[nH]c4ccccc34)CC2)Oc2ccccc21 | . | . | -13.0% | 3.3% | 15.4%[46.1 µM] | -0.3% | -1.0% | ?
COc1cccc(-c2ccc(NC(=O)C3CCCN(Cc4cnn(C(C)C)c4)C3)cc2)c1 (stereo not drawn) | . | . | ? | 6.5% | ? | -16.7% | ? | ?
COc1ccc(-c2nc(C#N)c(N3CCN(c4cccc(Cl)c4)CC3)o2)cc1OC | 5.2% | -25.3% | -0.3% | 4.3% | 2.2% | 2.3% | . | -12.9%
COc1ccc(CC(=O)N/N=C(\C)CC(=O)NCc2ccco2)cc1OC | . | . | 0.5% | 10.3% | . | 2.6% | 0.0% | .
CC1=NN(C(=O)c2ccc(Br)cc2)C(O)(C(F)(F)OC(F)(F)F)C1 (stereo not drawn) | 4.9% | -5.0% | -43.3% | 1.5% | 1.5% | -13.5% | ? | -22.3%
O=C(COC(=O)c1ccccc1Cc1ccccc1)NC1CCS(=O)(=O)C1 (stereo not drawn) | . | . | -5.1% | 1.8% | -6.1% | 8.7% | -0.3% | 6.1%
CC1(C)N=C(c2ccc(Cl)cc2Cl)C(=O)N1 | -2.0% | 2.4% | 1.9% | -0.7% | -18.7%[14.3 µM] | -5.7% | 3.5% | 8.4%
CCCCCn1c(=O)[nH]c2cc(C(=O)NCCc3ccc(OC)c(OC)c3)ccc2c1=O | 26.6% | 1.6% | -3.5% | -5.2% | -16.8% | -1.4% | -19.0% | -4.1%
CCCn1c(=O)c2sccc2n2c(CCCC(=O)Nc3ccc(Oc4ccc(Cl)cc4)cc3)nnc12 | ? | 6.5% | . | . | ? | . | ? | -26.3%[46.1 µM]
COc1ccc(NC2CCCN(C(=O)CN3CCOC3=O)C2)cc1 (stereo not drawn) | . | . | -3.6% | -6.3% | . | -11.4% | 4.9% | .

Arranged by molar mass (highest first): three of the compounds above.
Compound | Cruzain inh noDet | Cruzain inh Det | SARS PLP yeast | RE007 growth inh | LASV entry inh | NS1 function inh | 2A StopGo | Marburg entry inh
COc1ccc(CC(=O)N/N=C(\C)CC(=O)NCc2ccco2)cc1OC | . | . | 0.5% | 10.3% | . | 2.6% | 0.0% | .
COc1ccccc1Nc1nc(-c2cccc([N+](=O)[O-])c2)cs1 | . | . | -1.3% | -8.0% | . | 7.7% | 43.1%[activator] | .
CC1(C)N=C(c2ccc(Cl)cc2Cl)C(=O)N1 | -2.0% | 2.4% | 1.9% | -0.7% | -18.7%[14.3 µM] | -5.7% | 3.5% | 8.4%

Next compounds:
Compound | Cruzain inh noDet | Cruzain inh Det | SARS PLP yeast | RE007 growth inh | LASV entry inh | NS1 function inh | 2A StopGo | Marburg entry inh
CC(=O)NC(c1ccco1)c1ccc2cccnc2c1O (stereo not drawn) | -7.5% | -9.5% | ? | -1.5% | ? | -77.6% | 2.1% | ?
COc1ccc(C(=O)NCC(c2cccnc2)N2CCN(c3ccccc3OC)CC2)cc1 (stereo not drawn) | 1.5% | -9.8% | . | . | -25.5%[46.1 µM] | . | ? | .
COc1ccc2cc(CCl)c(Cl)nc2c1 | . | . | 0.0% | -4.9% | . | 14.4% | 4.1% | .
CCN(CC)C(=O)C1CCCN(C/C=C/c2ccccc2[N+](=O)[O-])C1 (stereo not drawn) | . | . | -2.6% | -0.4% | 14.5% | 7.7% | -16.2% | -18.6%
NS(=O)(=O)c1ccc(NC(=O)CSc2nc3c(cnn3-c3ccccn3)c(=O)[nH]2)cc1 | . | . | -5.5% | 8.9% | ? | . | -15.5% | ?
Cc1nc2c(oc3ccccc32)c(=O)o1 | 3.8% | 4.6% | 1.1% | -10.2% | ? | -13.3% | 84.0%[activator] | 6.5%
Cc1csc(NC(=O)CSc2nncc(=O)n2N)n1 | . | . | 1.7% | 22.6% | ? | 1.9% | -19.6% | -1.9%
CN(C)CCOc1ncnc2c1oc1ccccc12 | -11.3% | 0.8% | 5.4% | -5.9% | 17.7% | -5.2% | -7.4% | -3.4%
COC(=O)c1sc(N)c(C(=O)OC)c1COC(=O)CCNS(=O)(=O)c1ccc(C)cc1 | -15.4% | -8.4% | 3.2% | 4.6% | ? | -5.1% | -10.1% | -20.0%
Cc1ccc(NC(=O)CN2C(=O)N/C(=C/c3cccn3-c3ccc(C(=O)O)cc3)C2=O)cc1 | 9.2% | -18.3% | 15.4% | -13.2% | 1.6% | ? | -21.3% | ?
Cc1ccc(-n2cc3c(c2-c2ccccc2Br)c(=O)n(C)c(=O)n3C)cc1N | -4.8% | -3.0% | . | . | -29.9%[46.1 µM] | . | -24.6% | 2.4%[46.1 µM]
CCOC(=O)c1[nH]c(C)c(C(=O)Nc2ccc3c(c2)OCCO3)c1C | -14.7% | 2.9% | 0.3% | 15.2% | -2.9% | -2.6% | 0.0% | 22.4%
C[C@H](Nc1ncnc2sc3c(c12)CCC3)C(=O)O | 4.3% | 3.6% | 4.0% | -7.9% | 7.7% | 1.1% | -15.4% | 17.8%
CC(C)CNC(=O)c1ccc(Cl)c(Cl)c1 | 5.2% | -2.6% | . | -27.6% | -3.6% | -6.3% | -6.4% | -16.6%
COC1OC(COC(=O)CNC(=O)OC(C)(C)C)C(O)C(O)C1O (stereo not drawn) | -5.1% | -1.1% | 11.8% | -19.2% | 14.4%[46.1 µM] | -8.0% | -15.2% | -3.3%
O=C(Cn1c(=O)n(-c2ccc(F)c(Cl)c2)c(=O)c2sc3ccccc3c21)NC1CCCC1 | -0.7% | 0.2% | . | . | 4.0%[46.1 µM] | . | -0.3% | -7.9%[46.1 µM]
Cc1cc2c(cc1S(=O)(=O)NCc1ccc(F)cc1)OCCN2C | 6.3% | -0.5% | . | . | 13.1%[46.1 µM] | . | 66.4%[activator] | .
CN(C)/C=C(\C(=O)c1ccccc1)c1nnnn1-c1ccc(F)cc1 | . | . | -2.8% | 5.7% | 15.7% | 1.7% | -3.3% | -9.8%[46.1 µM]
O=C(COC(=O)Cc1ccc(S(=O)(=O)N2CCOCC2)s1)Nc1ccccc1Cl | . | . | -4.9% | 7.0% | -2.0% | . | -6.7% | 4.6%
Cc1ccc(-n2c(C)nc3c(cnn3-c3ccc(F)cc3)c2=O)cc1 | -0.7% | 2.4% | 0.5% | 5.4% | -12.3% | -17.3% | ? | ?
N#CCC(=O)Nc1ccc(C(=O)NNC(=S)NC2CC2)cc1 | . | . | 1.1% | 25.1% | ? | . | 6.0% | 8.2%

Bioassay records deposited in PubChem BioAssay by National Center for Advancing Translational Sciences (NCATS).
